Compound activity (PubChem)
miR-21 FLuc – raises the signal of a miR-21 reporter; HeLa miR-21 FLuc reporter, luciferase, 48 h; Potency, µM (highest dose often 38.3 µM), for inactives: at the highest dose reporter change, positive = more light; 340,000 tested, under 10 active; AID 2288; active = well fitted rising curve with a large enough effect; inconclusive = small, poorly fitted or top-dose-only effect; inactive = no such curve, though single readings can be large or run the other way;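 note: % of control where 0% means no effect; miR-21 action dims this reporter so a rising signal means less miR-21 action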
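HeLa miR-21-FLuc reporter line, endogenous miR-21; 2000 cells/well in DMEM/10% FBS; compound titration up to ~40uM final, 48 h, 37 degree Celsius; luciferase detection reagent, 15 min lysis, CCD luminescence.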
GLA inh pH 4.5 – blocks human alpha-galactosidase A at pH 4.5 | P06280 | purified enzyme, 4-MU-alpha-Gal fluorescence, pH 4.5 | activity change, negative = inhibition, % at 105 µM | 230,000 tested, under 10 active | AID 1467; inconclusive = small, poorly fitted or top-dose-only inhibition, or a rising curve; inactive = flat fitted curve, though single readings scatter; no compound was filed as active;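 note: 0% = full activity with enzyme and -100% = basal without enzyme; dose as in the result columns while the protocol names 77 µM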
Rango complex inh – prevents formation of the Rango-importin beta complex; Q14974; Rango CFP/YFP FRET sensor + importin beta, 45 min; Potency, µM (titrated, usually from 92.2 µM), without a hit: top-dose inhibition of complex formation; 0.031% of 340,000 active; AID 540263; active = rising FRET ratio curve, often small or poorly fitted; inconclusive = mostly compound fluorescence or quenching in the first reads; inactive = flat curves in all reads;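 note: potency is the fitted concentration of half-maximal effect; 0% = DMSO wells and 100% = buffer wells lacking importin beta; nearly all actives have a fitted effect of over 15% in size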
Target sequence (Q14974 whole entry, looked up): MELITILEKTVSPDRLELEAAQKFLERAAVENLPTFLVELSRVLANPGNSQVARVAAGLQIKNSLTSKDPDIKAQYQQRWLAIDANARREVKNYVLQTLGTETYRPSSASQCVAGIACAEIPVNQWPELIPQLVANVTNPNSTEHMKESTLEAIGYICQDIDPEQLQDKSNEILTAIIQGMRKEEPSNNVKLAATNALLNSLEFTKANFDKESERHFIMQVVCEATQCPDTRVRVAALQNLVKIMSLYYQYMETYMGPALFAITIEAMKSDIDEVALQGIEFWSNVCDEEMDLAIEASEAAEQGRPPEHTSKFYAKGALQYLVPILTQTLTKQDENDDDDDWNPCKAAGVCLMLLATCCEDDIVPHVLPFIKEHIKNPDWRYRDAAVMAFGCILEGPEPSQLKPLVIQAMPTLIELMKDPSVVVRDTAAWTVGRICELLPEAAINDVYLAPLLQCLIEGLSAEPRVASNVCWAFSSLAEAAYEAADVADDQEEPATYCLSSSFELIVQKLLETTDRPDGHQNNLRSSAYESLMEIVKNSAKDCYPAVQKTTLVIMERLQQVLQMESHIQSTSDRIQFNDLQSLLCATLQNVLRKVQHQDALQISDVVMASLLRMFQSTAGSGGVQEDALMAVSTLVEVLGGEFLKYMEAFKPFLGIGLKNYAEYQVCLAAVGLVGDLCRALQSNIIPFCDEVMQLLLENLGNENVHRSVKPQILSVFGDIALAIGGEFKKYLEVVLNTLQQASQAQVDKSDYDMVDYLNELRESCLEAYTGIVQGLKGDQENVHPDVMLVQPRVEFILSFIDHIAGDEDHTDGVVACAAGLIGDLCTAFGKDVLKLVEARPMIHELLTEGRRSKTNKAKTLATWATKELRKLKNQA
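FRET biosensor (snurportin 1 IBB flanked by EYFP and cerulean), 50 nM, with compound 5 min, then 0.125 microM importin beta in PBS, 1 mM DTT, 0.02% Tween-20, 0.1% BSA. CFP/YFP ratio read after 45 min at room temperature; pre-read flags interference.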
Rango dissoc inh – inhibition of RanGTP-driven Rango-importin beta dissociation | O95149+P62826 | Biochemical FRET Rango-importin beta, RanGTP-induced dissociation | Potency, µM (top dose mostly 46.1 µM), for the others: top-dose activity change, negative = inhibition | 0.071% of 340,000 active | AID 540253; active means falling FRET ratio curve, often poorly fitted, with flat reads before Ran was added; inconclusive means other falling curves, or compound fluorescence or quenching; inactive means flat or rising ratio curve;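 note: potency is the fitted concentration of half-maximal effect; % of control where 0% means no effect; nearly all actives have a fitted effect of over 45% in size; -100% = wells without RanGTP and RCC1; the record marks most hits as doubtful in a second field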
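Compounds preincubate 5 min with complex of recombinant Rango and importin beta in PBS with 1 mM DTT. Ran (0.6 uM) loaded with 2 mM GTP plus 0.2 uM RCC1 starts dissociation; FRET is recorded 45 min later.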
* hit, by the source's call; ? = inconclusive; . = not tested or not shown.

molecule,miR-21 FLuc,GLA inh pH 4.5,Rango complex inh,Rango dissoc inh
COc1cc(CCC(=O)Nc2sccc2C#N)cc(OC)c1OC,4%,.,1.2%,?
CCOC(=O)c1ccc(NC(=O)COc2ccccc2CNCCO)cc1,0%,-7,-2.2%,22%
CC1CCCCC1NC(=O)c1cc2ccccc2o1 (stereo not given),-25%,7,1.5%,2%
O=C(NN1CCN(Cc2ccccc2Cl)CC1)c1ccc(Br)cc1,-3%,3,1.1%,7%
FCCCOc1ccc(-c2ccnc3ncnn23)cc1,-6%,16,0.5%,18%
Cc1ccc(C)c(N2CCN(c3nc4ccccc4c(=O)n3Cc3ccccc3)CC2)c1,-5%,6,5.0%,7%
COc1cccc(/C=C2/SC(=S)N(CC(=O)NNC(=O)c3ccccc3O)C2=O)c1,-6%,.,-2.4%,-5%
CNC(=O)CC12CC3CC(CC(C3)C1)C2,-11%,5,0.1%,-9%
O=C(CCN1CCC(c2ccccc2)C1)c1ccccc1 (stereo not given),-6%,-2,2.3%,10%
O=[N+]([O-])c1cccc(Cl)c1NCCNc1ncc(C(F)(F)F)cc1Cl,-11%,-14,-5.0%,-13%
Cc1cc(NC(=O)CSc2nnc(-c3cccnc3)n2Cc2ccccc2)no1,-6%,-14,-0.6%,1%
O=S1(=O)CCC(NC(=S)N2CCCCCC2)C1 (stereo not given),0%,0,2.8%,7%
CCOC(=O)c1c(N)c(C#N)c2n1CCCCC2,-7%,1,1.8%,7%
CCCCN1CC(COCc2ccccc2)Oc2cccc(Oc3cc(C)c(C)c(C)c3)c2S1(=O)=O (stereo not given),.,.,-0.1%,-14%
O=C(Nc1ccccc1N1CCCC1)c1ccccc1F,-2%,.,0.2%,8%

Entries of single compounds as entered above.
COc1cccc(/C=C2/SC(=S)N(CC(=O)NNC(=O)c3ccccc3O)C2=O)c1 as listed: miR-21 FLuc: -6%; GLA inh pH 4.5: .; Rango complex inh: -2.4%; Rango dissoc inh: -5%
O=C(NN1CCN(Cc2ccccc2Cl)CC1)c1ccc(Br)cc1 as listed: miR-21 FLuc: -3%; GLA inh pH 4.5: 3; Rango complex inh: 1.1%; Rango dissoc inh: 7%

(next part)
molecule,miR-21 FLuc,GLA inh pH 4.5,Rango complex inh,Rango dissoc inh
COc1ccc(C(=O)/C(=C/c2cccs2)c2nc3ccccc3o2)cc1,-54%,9,-5.5%,2%
COc1ccccc1-c1c(C)nn2c(N3CCN(c4ccccc4OC)CC3)cc(C)nc12,0%,-1,-1.0%,4%
CC(=O)N/C(=C\c1ccccc1)C(=O)OCCCOC(=O)/C(=C/c1ccccc1)NC(C)=O,2%,.,1.6%,?
Nc1nc(CN2CCCCCC2)nc(Nc2ccc(F)cc2)n1,-7%,-15,-0.9%,-3%
COc1ccc(S(=O)(=O)n2nc(OC(C)=O)cc2N)cc1,-2%,-3,-1.5%,10%
CCCCN1C=C(C(=O)OC)C(c2ccccc2C(F)(F)F)C(C(=O)OC)=C1,0%,?,?,?
CC1CCN(Cc2nc(-c3ccc(Cl)cc3)no2)CC1,-19%,-10,-1.3%,13%
Cc1ccc(CN(C)C(=O)c2ccccc2Sc2ccccc2C#N)cc1,0%,.,2.3%,20%
CC1(C)Cc2cccc(OCC(=O)N3CCN(c4cccc(C(F)(F)F)c4)CC3)c2O1,.,.,1.2%,-4%
COc1ccc(S(=O)(=O)N2CCCCC2)cc1NS(=O)(=O)c1cc(Cl)ccc1Cl,1%,2,-3.5%,-10%
COc1ccc(N2C(=O)c3ccccc3NC2c2ccc(NC(C)=O)cc2)c(OC)c1 (stereo not given),-5%,.,?,-3%
CC(C)S(=O)(=O)c1cnc(-c2cccnc2)nc1N,-14%,1,0.1%,3%
Cc1cc(C)n2nc(C(=O)NC(C)(C)C)nc2n1,-7%,-2,0.9%,-5%
CCOC(=O)c1cc(Sc2ccccc2N)cc(C(=O)OCC)n1,1%,-7,-1.7%,-10%
CSc1ccc(CN(C)C(C)C(=O)NCC2CCCCC2)cc1 (stereo not given),0%,.,1.1%,-2%
Cc1ccc(CNC(=O)Nc2ccccc2)n1C,-13%,.,3.1%,-1%
C=CCSc1nc(N)c(C(=O)Nc2ccccc2C)cc1C(N)=O,-2%,8,?,-5%
CC(=O)Nc1ccc(NC(=O)C(C)OC(=O)CCc2nc3ccccc3s2)cc1 (stereo not given),-1%,5,-6.5%,18%
Cc1ccc(C(=O)Nc2ccccc2N2CCCCC2)o1,7%,.,-1.4%,-1%
Brc1ccsc1-c1csc(-c2ccncc2)n1,-51%,.,-1.8%,9%
O=C(COC(=O)C1CC2C=CC1C2)NCc1ccccc1Cl (stereo not given),-5%,-7,3.6%,1%
CC(C)COC(=O)NCCCOC(=O)Nc1ccccc1,-26%,-4,0.0%,0%
COc1ccc(NC(=O)c2cc(C(C)C)on2)cc1OC,-51%,-13,-0.2%,-13%
COc1ccc(OC)c(-c2csc(NC(=O)Cn3[nH]c(=O)c4ccccc4c3=O)n2)c1,-9%,-23,0.5%,3%
COCCCN(CC(=O)NCc1ccccc1)S(=O)(=O)c1ccc(C)cc1,8%,.,1.9%,-1%
O=C(c1coc(=O)c(Br)c1)N1CCOCC1,-4%,0,-0.2%,1%
COCCn1c(SCC(=O)N2CCOCC2)nnc1-c1ccco1,1%,.,-0.5%,-1%
CCC(C)(C(=O)NC1CCCCC1)N(Cc1cccs1)C(=O)c1ccccn1 (stereo not given),-2%,2,-2.2%,3%
CCOc1ccc(Nc2nc(N3CCOCC3)nc(N3CCOCC3)n2)cc1,-1%,.,-2.2%,-9%
COc1ccc(Oc2ccc(NC(=O)c3ccccc3C)cc2)cc1,17%,-4,-1.0%,-5%
CC(C)C[C@H](NC(=O)Nc1cccc(Cl)c1)C(=O)O,-3%,2,-0.3%,-11%
O=C1CN(C(=O)COc2cccc(F)c2)c2ccccc2N1,-3%,5,.,.
CCOC(=O)COc1cc2c(C(=O)OCC)c(C)oc2cc1Br,-5%,5,2.7%,7%
Cc1nn(C)c(Cl)c1/C=N/OC(=O)c1ccc(F)cc1,-3%,-4,-1.0%,-13%
COc1ccc(-c2cc(C(=O)OCC(=O)N(C)C)c3ccccc3n2)cc1,-8%,1,-0.9%,-9%
N#Cc1nc(-c2ccc(OCc3ccccc3)cc2)oc1N1CCOCC1,-7%,-13,0.5%,-20%
CCCc1cnc(N2CCN(C(=O)c3ccc(OC)cc3)CC2)nc1,6%,.,3.3%,14%
CN(C)S(=O)(=O)c1ccc(Cl)c(NC(=O)CSc2nc3c(cc2C#N)C(=O)CCC3)c1,-1%,-2,?,-15%
CCOc1ccc(N(Cc2cc3ccc(C)cc3[nH]c2=O)S(=O)(=O)c2ccccc2)cc1,1%,.,0.1%,5%
Cc1ccc(C)c(N(CC(=O)NCc2ccco2)C(=O)CCC(=O)Nc2nccs2)c1,4%,.,5.0%,?
O=C(Cn1cc2c(n1)CCCCC2)NCCN1CCOCC1,-7%,1,-0.8%,30%
Cc1onc(-c2ccccc2)c1C(=O)OCC(=O)Nc1ccc(OC(F)(F)F)cc1,.,.,-1.9%,1%
O=C1C=CC(O)(c2cc(=O)c3c(O)cc(O)cc3o2)C=C1,?,4,0.2%,9%
CCOC(=O)C1=C(CC)Nc2ccccc2N=C1NC(=O)c1cc(S(=O)(=O)N2CCOCC2)ccc1C,.,.,4.1%,18%
C[C@H](CO)N1C[C@H](C)[C@@H](CN(C)S(=O)(=O)c2cn(C)cn2)Oc2ccc(NC(=O)C3CCCCC3)cc2C1=O,.,.,1.8%,2%
CCOc1ccc2c(C)c(C)c(=O)oc2c1OCC,-11%,5,-4.7%,-7%
CCCn1c(=O)[nH]c(=O)c2c1nc(-c1ccccc1OC(F)F)n2CCOC,-17%,8,-5.3%,1%
O=C(O)CC1SC(=Nc2cccc(O)c2)NC1=O (stereo not given),-1%,-5,0.1%,2%
O=C1c2ccccc2-c2nc3ncnn3c(-c3ccccc3Cl)c21,-11%,-1,-0.2%,2%
CC(C)N(Cc1cc2ccccc2[nH]c1=O)C(=O)C1CCCCC1,1%,0,?,-4%
COc1ccccc1COC(=O)N/C=C/c1ccco1,-1%,?,?,?
CC(=O)Nc1ccc(C2CC(c3ccc(Cl)cc3)=NN2c2ccccc2)cc1 (stereo not given),-25%,.,?,?
Oc1cc(NCc2cccnc2)ccc1-c1nc2ccccc2o1,-38%,13,-5.3%,-7%
COc1ccc(C(=O)NCCNc2nc3ccc(C)cc3cc2C#N)cc1,6%,.,?,?
CC(=O)Oc1ccc(C(=O)[C@H]2[C@H]3C(=O)N(c4ccc(C)cc4C)C(=O)[C@H]3[C@@H]3C=CC=NN32)cc1,-14%,-14,?,-24%
CCCN1CCN(C(=O)CS(=O)(=O)Cc2nc(-c3cccc(OC)c3)oc2C)CC1,0%,.,-3.3%,-2%
Cc1csc(Cn2c(CN(C)C)nc3ccccc3c2=O)n1,-1%,-14,1.3%,3%
COc1cccc(/C(C#N)=C/c2c(-c3ccc(Cl)cc3)nc3c(C)cccn23)c1,-6%,-13,-0.4%,-1%
Cc1ccc(N/C=C/c2onc(C)c2[N+](=O)[O-])cc1,-66%,-4,-0.1%,10%
O=C(CCCCCNC(=O)N1CCn2c1nc1ccccc12)NCc1ccccc1,-1%,.,2.8%,4%

Next part:
molecule,miR-21 FLuc,GLA inh pH 4.5,Rango complex inh,Rango dissoc inh
Cc1cc(C)c2sc(NC(=O)C3=COCCO3)nc2c1,-32%,.,3.5%,0%
CC(=O)Nc1ccc(S(=O)(=O)N2CCN=C2SCc2ccccc2C)cc1,-4%,.,0.4%,27%
CC(C)C[C@H](NC(=O)OC(C)(C)C)C(=O)N[C@@H](CO)[C@H](O)[C@@H]1C[C@@H]1C(=O)N(C)C,1%,.,1.8%,14%
COc1cc(/C=N/NC(=O)Cn2cnc3ccccc3c2=O)ccc1O,1%,1,?,-4%
CCOc1nc(NCCO)nc(Nc2ccccc2F)n1,-26%,0,-1.6%,13%
CNC(=O)COc1coc(CN2CCN(Cc3ccccc3)CC2)cc1=O,-1%,.,?,-6%
COCCN(C(=O)c1ccccc1)c1nnc(-c2cccnc2)s1,-11%,5,-0.7%,-7%
C=CCc1cccc(/C=N/NC(=O)CNc2ccccc2)c1O,26%,1,-4.5%,-1%
CS(=O)(=O)N(CC(=O)N1CCCCC1)c1sc2c(c1C#N)CCCC2,-6%,-5,1.2%,15%
COCCCNc1nc(N)c([N+](=O)[O-])c(N2CCCCCC2)n1,0%,.,-1.4%,-7%
COc1ccc(/C=N/Nc2ccc([N+](=O)[O-])cc2)cc1O,-48%,.,?,?
CC(C)NCCOCCSc1ccc(Cl)cc1,-7%,8,6.1%,-1%
COc1cc(/C=C/C(=O)NCCc2ccc(S(N)(=O)=O)cc2)ccc1OCC#N,1%,2,-0.8%,11%
O=C(Nc1ccccc1Cl)c1ccc(-n2cccn2)c([N+](=O)[O-])c1,-24%,-3,0.6%,9%
O=C(Nc1ccc2c(c1)OCCO2)C1CC(c2ccc(F)cc2)=NO1 (stereo not given),-8%,.,-0.9%,6%
COc1cc(C2C(C#N)=C(N)Oc3n[nH]c(-c4ccncc4)c32)cc(OC)c1OC (stereo not given),1%,3,-2.5%,9%

The list is partial (hit frequency here may not be typical).
